KCNQ2 pot = enhances the rat KCNQ2 potassium channel; O88943; CHO-K1 KCNQ2, FluxOR thallium flux fluorescence; active compounds read high; B-score at 10 µM; 310,000 compounds, 0.54% hits; AID 2239;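 active = fluorescence ratio B-score at least 3 SD of library B-scores, with initial fluorescence B-score within 3 SD, cut at about 5.3 in these data; same plate scores as AID 2156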;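 note: B-score of peak minus minimum over baseline fluorescence ratio after K+ and Tl+ stimulus; positive B-score means potentiation of KCNQ2 with more thallium influx and brighter signal; only the inactives scoring about 0 or higher are listed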
Target sequence (O88943 whole entry, looked up): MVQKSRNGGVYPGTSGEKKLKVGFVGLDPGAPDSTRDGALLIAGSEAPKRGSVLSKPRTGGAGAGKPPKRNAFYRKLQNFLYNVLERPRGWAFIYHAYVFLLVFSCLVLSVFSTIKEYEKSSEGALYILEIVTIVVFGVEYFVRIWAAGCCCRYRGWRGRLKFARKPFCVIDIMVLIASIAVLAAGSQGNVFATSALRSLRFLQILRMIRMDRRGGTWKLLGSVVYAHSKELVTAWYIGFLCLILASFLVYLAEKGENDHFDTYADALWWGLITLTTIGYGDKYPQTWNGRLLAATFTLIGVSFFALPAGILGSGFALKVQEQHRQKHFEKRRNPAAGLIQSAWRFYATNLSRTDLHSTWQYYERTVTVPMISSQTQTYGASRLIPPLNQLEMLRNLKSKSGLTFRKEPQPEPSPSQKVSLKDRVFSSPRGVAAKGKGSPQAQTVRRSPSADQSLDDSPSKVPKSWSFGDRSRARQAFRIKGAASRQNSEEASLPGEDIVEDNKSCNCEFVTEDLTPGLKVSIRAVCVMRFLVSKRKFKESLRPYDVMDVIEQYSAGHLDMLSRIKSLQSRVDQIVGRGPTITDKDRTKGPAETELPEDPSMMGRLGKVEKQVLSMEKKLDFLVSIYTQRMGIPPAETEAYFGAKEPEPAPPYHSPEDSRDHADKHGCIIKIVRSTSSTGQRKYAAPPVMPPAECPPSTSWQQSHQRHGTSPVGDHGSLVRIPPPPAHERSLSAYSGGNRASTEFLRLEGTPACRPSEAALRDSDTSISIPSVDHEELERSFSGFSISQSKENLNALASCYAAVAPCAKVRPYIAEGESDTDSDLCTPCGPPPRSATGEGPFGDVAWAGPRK
KCNQ2 pot baseline = second read-out of KCNQ2 pot, no call of its own (marks repeat the call); B-score; compound at 10 µM; measured here: initial fluorescence intensity artifact check;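 brightness before thallium and not channel activity; 0 = typical well and far values either way flag optical interference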
Starred values were filed as active, the others as inactive.

SMILES	KCNQ2 pot	KCNQ2 pot baseline
CCC1CCCCN1S(=O)(=O)c1ccc(NC(=O)c2nc(S(C)(=O)=O)ncc2Cl)cc1 (stereo not given)	0.69	-3.1
COc1ccc(Cc2nc3ccc(C(=O)NC(C)C)cc3o2)cc1	1.6	-1.3
CCCCCCOc1ccc(N2C(=O)CC(S/C(N)=N/N=C(\C)c3cccs3)C2=O)cc1 (stereo not given)	0.71	0.26
Cc1cnc(C(=O)Nc2cc(F)ccc2C)cn1	0.26	-1.4
COc1cc(-c2cc3nc(C)c(C)c(=O)n3[nH]2)cc(OC)c1OC	0.22	-1.5
COc1cc(C(=O)NCc2nnc(SCC(=O)c3ccccc3)o2)cc(OC)c1OC	0.99	-0.06
[O-]/[N+](=C\c1ccco1)c1ccc(Cl)cc1	1.5	0.46
O=C1C2C3C=CC(C2C(=O)N1c1cccc(O)c1)C1C2C(=O)N(c4cccc(O)c4)C(=O)C2C31 (stereo not given)	0.15	0.62
COc1cc(C(=O)Nc2c(C)cc(C)cc2C)c([N+](=O)[O-])cc1OC	0.93	-1.4
CC(C)N(C)CCOC(=O)c1ccc2c(c1)OCCO2	0.01	1.1
O=C1CCCc2c1cc(C(=O)O)c(=O)n2-c1ccccc1	0.31	1
COc1ccc(C(=O)Nc2cc(OC)nc(OC)n2)cc1	2.4	-0.06
Cn1c(CSc2nc3ccccc3s2)nnc1SCC(=O)NCc1ccccn1	0.79	-0.84
O=C(NC1CCCC1)C(c1ccccn1)N(C(=O)c1csnn1)c1ccccc1F (stereo not given)	0.72	-0.47
COC(=O)CN=Cc1c(O)n(-c2ccc(Cl)cn2)c(=O)c2ccccc12	1.5	0.03
Clc1ccc(-c2cn3cccnc3n2)cc1Cl	1.6	2.7
Cc1cc(NC(=O)c2cccc(N3C(=O)CCC3=O)c2)no1	1.1	0.28
CC(c1ccon1)N(C)C(=O)CCc1nnc(CCCCc2ccccc2)o1 (stereo not given)	0.31	-1.7
COc1cc2c(cc1NC(=O)Nc1ccc(F)cc1)oc1ccccc12	0.98	9.3
Cc1ccc(SCC(=O)OCC(=O)NC2(C#N)CCCCC2)cc1	0.03	0.36
CC1c2ccccc2SC(CCCN(C)C)c2ccccc21 (stereo not given)	0.88	0.83
COC(=O)c1ccc(CN2CCN(Cc3ccc(C(=O)OC)o3)CC2)o1	0.39	-0.92
CCCC(=O)Nc1nc2n(n1)C(c1ccccc1)CC(=O)N2 (stereo not given)	0.49	1
Cc1cccc(-c2nsc(SCC(=O)NCc3ccc4c(c3)OCO4)n2)c1	0.24	-1.8
O=C(CN1CCOCC1)Nc1ccc(Oc2ccccc2)cc1	0.06	1.4
O=C(CSc1nc2ccccc2s1)N/N=C/c1cc([N+](=O)[O-])ccc1O	1.4	-0.21
CCOc1ccc(C(=O)CCC(=O)NCC(=O)OCc2ccccc2)cc1OCC	0.77	0.59
CN(C)S(=O)(=O)c1cccc(NC(=O)COC(=O)c2cc(=O)[nH]c(=O)[nH]2)c1	2.2	-0.13
COc1cc([N+](=O)[O-])ccc1NC(=S)NC(=O)CC(C)(C)C	3.1	-1.1
CCN(CC)CCN(C(=O)c1ccccc1OC)c1nc2ccc(F)cc2s1	0.11	-0.7
CCOC(=O)N1CCN(S(=O)(=O)N2CCCC(C(=O)NCCc3ccc(C)cc3)C2)CC1 (stereo not given)	0.33	-1.2
COc1ccc(-c2csc(NC(=O)c3ccccc3OC)c2C(=O)O)cc1OC	0.2	-0.27
CCOC(=O)C(NC(=O)CC)(Nc1ccccc1OC)C(F)(F)F (stereo not given)	0.04	1.8
Cc1ccc(-c2nnc(C)c(N3CCCC3)n2)cc1	0.06	-0.16
O=C(CSc1nc(-c2ccco2)cc(C(F)(F)F)n1)NCCN1CCOCC1	0.91	1.8
Cc1ccc(NC2=CC(=O)CC(c3ccco3)C2)c(N)c1 (stereo not given)	0.19	2.5
N#CCCNC(=O)CCN1CCOCC1	2.1	-0.68
CC(=O)N1c2ccc(S(=O)(=O)N3CCCC3)cc2CC1C(=O)NCc1ccccc1F (stereo not given)	0.68	1
COc1ccc(OC)c(NC(=O)C(C)N2c3cccc4cccc(c34)S2(=O)=O)c1 (stereo not given)	0.46	-1.9
O=[N+]([O-])c1ccc(/C([O-])=C(/C(=S)NCc2ccco2)[n+]2ccccc2)cc1	0.5	-1.9
Nc1nonc1-c1nc2ccccc2n1CC(=O)Nc1ccccc1	0.28	-0.4
COC(=O)CCCC1=CC2=CC(=O)C(C)(OC(=O)c3ccc(Cl)nc3)C(=O)C2=CO1 (stereo not given)	0.02	2
O=C(Cc1ccccc1)Nc1ccc2oc(=O)ccc2c1	0.77	-1.4
CCN(C1CCCCC1)S(=O)(=O)c1ccc(C(=O)O)cc1	0.52	-2.2
CCOC(=O)CSc1nnc(-c2cccc(Cl)c2)n1CC	0.95	-0.01
CS(=O)(=O)c1ccc2nnn(OCC(=O)Nc3ccc(Br)cc3Br)c2c1	0.09	-1.3
O=C(NCCCc1ccccc1)C(=O)NCC1OCCN1S(=O)(=O)c1ccccc1 (stereo not given)	0.27	0.15
COc1ccc(C(O)(C2CCCCC2)C(CN2CCCC2)c2ccccc2)cc1 (stereo not given)	1.3	-0.19
Cc1cc(C)c(C)c(S(=O)(=O)NCCCN2CCOCC2)c1C	0.05	-0.96
NS(=O)(=O)c1cccc2cccnc12	0.68	-0.56

Next compounds.
SMILES	KCNQ2 pot	KCNQ2 pot baseline
COC(=O)CCC(=O)Nc1c(C)n(C)n(-c2ccccc2)c1=O	0.62	1.5
O=S(=O)(NCCc1ccncc1)c1ccc(Br)cc1	1.4	-0.22
COc1cccc(NC(=O)CCc2c(C)nc3nc(CNC(=O)c4cccc(F)c4)nn3c2C)c1	0.16	-0.21
CCOC(=O)c1c(C)oc(/N=C/c2ccccc2O)c1C#N	0.09	0.14
COC(=O)C(NS(=O)(=O)c1ccccc1Br)C(C)C (stereo not given)	2.7	-0.54
CCCCn1cnc2c([nH]c3ccccc32)c1=O	0.93	-0.03
COc1cc(OC)cc(C(=O)NC(=S)Nc2cc3oc4ccccc4c3cc2OC)c1	0.13	-0.37
Cc1cc(=O)n(C)c(=O)n1CCCCOc1cccc([N+](=O)[O-])c1	0.99	0.23
CC(=O)Nc1ccc(SCC(=O)Nc2sccc2C#N)cc1	0.04	0.45
COc1cccc(N2CCN(C(=O)c3cc4c(OC)c(OC)c(OC)cc4[nH]3)CC2)c1	0.7	0.01
Cc1ccc(NC(=O)CN(C)C(=O)Nc2ccc(C)cc2)cc1	0.44	1.8
O=C(NNC(=O)c1ccccc1[N+](=O)[O-])c1ccc(NS(=O)(=O)c2cccs2)cc1	0.97	-1.2
CCC(=O)Nc1ccc(NC(=O)c2ccccc2Cl)nc1	1.3	2.2
CCOC(=O)C(C)n1cnc2c(nnn2-c2ccc(OC)cc2)c1=O (stereo not given)	0.47	0.43
Cc1ccc(NC(=O)N2CCc3ccccc32)cc1	0.08	-0.04
N#C/C(=C\c1cccnc1)c1ccccn1	1.4	-2
CN(C)CCNC(=O)C(=O)NCC1OCCCN1S(=O)(=O)c1cccs1 (stereo not given)	0.97	0.03
CC(=O)/C(=N\Nc1ccccc1)Oc1ccc([N+](=O)[O-])cc1	0.25	-1.5
CC(=O)Nc1ccc(NC(=O)C2CC(=O)N(c3ccccc3Cl)C2)cc1 (stereo not given)	21*	-0.39*
O=C(NCCC1=CCCCC1)C1CCN(c2nnc(-n3cccc3)s2)CC1	0.53	-0.09
Cc1cc(O)ccc1Nc1nc(-c2cccnc2)cs1	1.1	0.16
CCOc1ccccc1C1CC(c2cccs2)=NN1S(C)(=O)=O (stereo not given)	0.13	-0.1
Cc1ccccc1OCC(=O)N/N=C/c1c(C)nn(-c2ccccc2)c1Cl	0.93	-0.03
O=c1[nH]c(SCc2ccccc2)nc2c1sc1ccccc12	0.58	-0.5
COc1cc2sc(C)nc2cc1C	1.4	-1.5
CCc1ccc(-c2nc(C(N)=O)c3[nH]c(=O)n(-c4ccccc4OC)c3n2)cc1	0.95	0.67
Cc1csc(=S)n1-c1ccccc1	0.84	0.14
O=c1c(Cl)c(NCCO)ncn1-c1ccccc1	0.24	0.21
Cc1nc2sc(C(c3ccc(F)cc3)N3CCN(C(=O)c4ccco4)CC3)c(O)n2n1 (stereo not given)	0.94	-0.37
COc1ccc(-c2[nH]ncc2CN2CCCOc3c(cccc3OC)C2)c(OC)c1	0.47	0.45
CCCn1nc2cc(C(=O)NCc3ccccc3)ccc2c1OCC	0.96	2.1
CC(C)c1nnc(NC(=O)CCC(=O)NC2CCCCCC2)s1	0.15	0.81
Cc1cccc(C)c1NC(=O)[C@@]1(CC(=O)O)CC(/C=C/c2ccccc2)=NO1	0.14	-0.83
COc1ccc(/C=C2/C(=O)N=C(N)N2C)cc1OC	0.39	-0.06
CSCCC(NC(N)=O)C(=O)Nc1cccc(C#N)c1 (stereo not given)	0.35	-1.2
c1ccc(OCc2nc(-c3ccncc3)no2)cc1	0.02	-1.1
Cc1cccn2c(=O)c3cc(S(=O)(=O)c4ccccc4)c(=N)n(Cc4ccc(F)cc4)c3nc12	0.51	0.25
O=C(Nc1ccccn1)c1ccc(S(=O)(=O)N2CCCC2)cc1	0.08	1.3
Cc1[nH]c(C)c(S(=O)(=O)Nc2ccc(F)cc2Cl)c1C(=O)N1CCCC1	0.99	1.7
CCC(C)NS(=O)(=O)c1ccc(NC(=O)c2c(-c3ccccc3)noc2C)cc1 (stereo not given)	1.1	-0.54

Another view of 14 compounds above.
Order of results: KCNQ2 pot | KCNQ2 pot baseline
COc1cc2sc(C)nc2cc1C
 : 1.4 | -1.5
CCc1ccc(-c2nc(C(N)=O)c3[nH]c(=O)n(-c4ccccc4OC)c3n2)cc1
 : 0.95 | 0.67
Cc1csc(=S)n1-c1ccccc1
 : 0.84 | 0.14
O=c1c(Cl)c(NCCO)ncn1-c1ccccc1
 : 0.24 | 0.21
Cc1nc2sc(C(c3ccc(F)cc3)N3CCN(C(=O)c4ccco4)CC3)c(O)n2n1 (stereo not given)
 : 0.94 | -0.37
COc1ccc(-c2[nH]ncc2CN2CCCOc3c(cccc3OC)C2)c(OC)c1
 : 0.47 | 0.45
CCCn1nc2cc(C(=O)NCc3ccccc3)ccc2c1OCC
 : 0.96 | 2.1
CC(C)c1nnc(NC(=O)CCC(=O)NC2CCCCCC2)s1
 : 0.15 | 0.81
Cc1cccc(C)c1NC(=O)[C@@]1(CC(=O)O)CC(/C=C/c2ccccc2)=NO1
 : 0.14 | -0.83
COc1ccc(/C=C2/C(=O)N=C(N)N2C)cc1OC
 : 0.39 | -0.06
CSCCC(NC(N)=O)C(=O)Nc1cccc(C#N)c1 (stereo not given)
 : 0.35 | -1.2
c1ccc(OCc2nc(-c3ccncc3)no2)cc1
 : 0.02 | -1.1
Cc1cccn2c(=O)c3cc(S(=O)(=O)c4ccccc4)c(=N)n(Cc4ccc(F)cc4)c3nc12
 : 0.51 | 0.25
O=C(Nc1ccccn1)c1ccc(S(=O)(=O)N2CCCC2)cc1
 : 0.08 | 1.3

(continued)
SMILES	KCNQ2 pot	KCNQ2 pot baseline
O=C(CSc1nc(-c2ccccc2)c(-c2ccccc2)[nH]1)NCC1CCCO1 (stereo not given)	0.27	1.5
CCn1c(SCC(=O)NCC2CCCO2)nnc1-c1c[nH]c2ccccc12 (stereo not given)	0.65	-0.29
NC(=O)C(=O)NN=C1CCC(c2ccccc2)CC1 (stereo not given)	0.18	1.6
CN(C)/C=N/c1cc(=O)[nH]c(=O)n1Cc1ccccc1	0.15	1.2
S=C(NCCCN1CCOCC1)Nc1cccc(-c2nnc3n2CCCCC3)c1	0.37	-1.1
COc1ccccc1NC(=O)c1cnc2n(c1=O)CCS2	1.9	0.32
COc1cc(C(=O)Nc2cccc(S(=O)(=O)N3CCCC3)c2)c([N+](=O)[O-])cc1OC	0.01	-0.28
CC(C)CCOC(=O)C1[C@H]2C(=O)N(Cc3cccs3)C[C@]23C=C[C@H]1O3 (stereo not given in full)	0.8	-0.25
COc1ccc(/C=N/Nc2ccc(C(=O)O)cc2)cc1OC	0.37	1.2
Cc1nn(-c2ccccc2)c(C)c1NC(=O)COC(=O)Cc1cccc(C(F)(F)F)c1	0.6	-0.42
O=C(CS(=O)c1ccc(F)cc1)N1CCOCC1 (stereo not given)	0.8	-0.32
Cc1ccc(S(=O)(=O)NNC(=O)c2cnn(-c3ccc(Cl)cc3)c2C(F)(F)F)cc1	0.54	-0.56
O=C(/C=C/c1ccccc1)Nc1cccnc1	0.82	0.2
COc1ccc(-c2csc(NC(=O)/C(N=Nc3ccccc3)=C(\C)O)n2)cc1	0.76	-2.1
O=c1oc(-c2ccco2)nc2sc3c(c12)CCCC3	0.55	0.73
O=C(Nc1cccnc1)c1cccc(S(=O)(=O)N2CCCCC2)c1	1.4	1
CCOc1ccc(NS(=O)(=O)c2ccc3c(c2)oc(=O)n3C)cc1	1.1	0.02
O=C(Cc1ccc(F)cc1)NCCc1ccc(F)cc1	0.81	-0.03
COc1cc(C=C2C(=O)OC(C)(C)OC2=O)cc(Cl)c1OCC(=O)Nc1ccccc1	1.4	-0.08
CC1CCCC(NC(=O)CNC(=O)c2cccs2)C1C (stereo not given)	0.45	1.8
COc1cc(Br)cc(C(c2c(C)n(C)n(-c3ccccc3)c2=O)c2c(C)n(C)n(-c3ccccc3)c2=O)c1O	0.42	-0.21
CC(=O)c1ccc(N(C(=O)CS(=O)CC(=O)Nc2ccc(F)cc2)C(C(=O)NC2CCCCC2)c2cccs2)cc1 (stereo not given)	0.55	-0.91
O=C(/C=C/c1ccccc1)OCCCCN=C1NS(=O)(=O)c2ccccc21	0.25	0.19
CCOc1cc(C2C(C(=O)c3ccccc3)=C(C(=O)OC)Nc3nnnn32)ccc1O (stereo not given)	0.57	-1.1

Screening data (PubChem BioAssay)

Not all compounds are listed, so the mix of outcomes need not match the whole.
